HPGD block = qHTS Assay for Inhibitors of HPGD (15-Hydroxyprostaglandin Dehydrogenase) | 4.3% of 150,000 active | purified HPGD, NADH fluorescence kinetic, PGE2 substrate | AID 894, 2007 | Potency, µM, without a hit: at the highest dose activity change, negative = inhibition, hits mostly inhibitors; active = well fitted inhibition curve with a large enough effect (not every such curve was filed as active); inconclusive = small, poorly fitted or top-dose-only effect, or another doubt; inactive = no such curve, though single readings can be large or run the other way;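 also: top concentration of the series not given in the record; plate controls included wells without enzyme; inactives centre near -10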
Target sequence (P15428 whole entry, looked up): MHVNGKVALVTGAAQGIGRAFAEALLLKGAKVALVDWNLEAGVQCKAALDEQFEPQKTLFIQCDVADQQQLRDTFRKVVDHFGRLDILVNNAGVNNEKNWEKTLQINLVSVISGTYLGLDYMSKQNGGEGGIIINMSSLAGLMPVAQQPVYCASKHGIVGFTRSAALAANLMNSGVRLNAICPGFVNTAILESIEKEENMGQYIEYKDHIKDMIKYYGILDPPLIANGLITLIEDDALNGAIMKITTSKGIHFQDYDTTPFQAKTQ
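NADH formation kinetics: reaction with 30 uM PGE2 and 1 mM NAD+ (final), 20 nM enzyme, Tris-HCl pH 8 with Tween 20, after 15 min compound preincubation at room temperature. Fluorescence change, last versus first of five reads.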
The depositor's hits bear a star; ? = inconclusive. % is scaled to controls: 0 for no effect and ±100 for the full control effect; potency is read from the fitted curve at half-maximal effect. These rows are one share of the data (hit frequency here may not be typical).

HPGD block	Structure
-13%	Cc1noc(C)c1-c1cc(N(C)C)ncn1
-3%	Cc1ccccc1-n1c(SCC(=O)NCc2cccs2)nnc1-c1ccncc1
-12%	Cc1cc(C)cc(C(=O)N2CCN=C2SCc2ccc([N+](=O)[O-])cc2)c1
?	CCCc1nc2oc3c(NCc4ccccn4)ncnc3c2c2c1COC(C)(C)C2
-7%	COc1cc(CO)cc(Br)c1OCC(=O)O
-18%	CCc1sc2nc(SCC(=O)Nc3cc(C)on3)n(-c3cccc(OC)c3)c(=O)c2c1C
1%	COC(=O)C1=C(C)N(c2ccc(OC)c(OC)c2)C(=O)C1
-7%	CCNC(=O)OCC12CC3CC(CC(C3)C1)C2
-17%	N#C/C(=N\Nc1cccc(Cl)c1)C(=O)c1ccccc1
?	N#Cc1ccc(Oc2ccc(-c3cnc4ccccc4n3)cc2)cc1C#N
-14%	CCOC(=O)C1CCCN(c2c(NCCc3ccc(S(N)(=O)=O)cc3)c(=O)c2=O)C1 (configuration not stated)
-17%	CCOC(=O)CSc1nc2ccccc2c(=O)n1CCN1CCOCC1
-4%	Cc1cccc(C)c1Nc1nnc(SCC(=O)NC(=O)c2cccn2C)s1
-10%	O=C(O)CONC(=O)c1cc(OCC(F)(F)F)ccc1OCC(F)(F)F
-2%	CCN(CC)c1ccc(NC(=O)CSc2nc(C)cc(=O)[nH]2)cc1
-21%	Cc1cccc(-c2noc(Cc3ccc(Cl)cc3)n2)c1
?	CSc1nc(NCc2ccco2)c2sc3nc(C(C)C)c4c(c3c2n1)CC(C)(C)OC4
-3%	CCOC(=O)c1c(NC(=O)CSc2nnc(CN3CCOCC3)n2C)sc2c1CCCC2
?	Nc1ccc2c(c1)C(=O)N(CCCCCC(=O)O)C2
-5%	C/C(Cl)=C/Cn1c(SCc2ccc(Cl)cc2)nc2c1c(=O)[nH]c(=O)n2C
-3%	O=C(COC(=O)c1cn(-c2ccccc2)nc1-c1ccccc1)c1ccc([N+](=O)[O-])cc1
?	Cc1cc2oc(=O)cc(CN3CCN(S(=O)(=O)c4ccc5c(c4)OCCO5)CC3)c2cc1C
?	Cc1cc(=O)oc2cc(NC(=O)CCCC(=O)O)ccc12
-9%	CC(C)(CSc1nncn1/N=C/c1ccco1)NS(=O)(=O)c1ccc(Cl)cc1
-17%	CCOC(=O)N1CCN(CC(=O)Nc2cc(C)nn2-c2nc3ccccc3s2)CC1
2%	COCCSc1ccccc1C(=O)Nc1ccc(Cl)cn1
-6%	COc1ccc(NC(=O)Cc2coc3cc(C)ccc23)cc1S(=O)(=O)N1CCOCC1
-1%	CC(C)CCNC(=O)[C@H](CC(C)C)NC(=O)[C@H]1O[C@@H]1C(=O)O
6%	C=CCn1c(SCC(=O)Nc2ccc(C(=O)OC(C)C)cc2)nnc1-c1cccs1
-12%	CCOC(=O)c1[nH]c2ccccc2c1NC(=O)c1nonc1C

Pulled by structure from the entries so far:
HPGD block	Structure
?	CSc1nc(NCc2ccco2)c2sc3nc(C(C)C)c4c(c3c2n1)CC(C)(C)OC4
?	N#Cc1ccc(Oc2ccc(-c3cnc4ccccc4n3)cc2)cc1C#N

The list goes on.
HPGD block	Structure
-2%	COc1ccc(CCNC(=S)Nc2ccccc2C)cc1
-6%	Cc1ccc(S(=O)(=O)NCCSc2nnnn2-c2ccc(C(N)=O)cc2)cc1
-7%	Cc1cc(NC(=O)c2ccc(N3C(=O)CCC3=O)cc2)no1
-3%	Cc1ccc(C2=Nc3ccccc3N=C(c3ccc([N+](=O)[O-])cc3)C2)c(O)c1
32µM*	O=C(NCc1ccc2c(c1)OCO2)C12CC3CC(CC(C3)C1)C2
?	Cc1c(C(=O)N2CCCC2)sc(NC(=O)c2ccco2)c1C#N
2%	C=CCNC(=O)NC(=O)COC(=O)c1cccnc1SC
-11%	O=S(=O)(C=C(c1ccccc1)c1ccccc1)c1ccccc1
-11%	CCOC(=O)C(C)Sc1cc(CS(=O)(=O)c2ccccc2)nc(-c2ccccc2)n1 (configuration not stated)
-3%	CO[C@H]1C=CO[C@]2(C)Oc3c(C)c(O)c4c(O)c(c5c(c4c3C2=O)NC2(CCN(CC(C)C)CC2)N=5)=NC(=O)C(C)=CC=C[C@@H](C)[C@@H](O)[C@@H](C)[C@@H](O)[C@@H](C)[C@@H](OC(C)=O)[C@@H]1C
-8%	Cc1ccc(C)c(-c2csc(N)c2C(=O)OC(C)C)c1
-14%	N#CCCN(C(=O)COC(=O)c1cccc(S(=O)(=O)Nc2ccc([N+](=O)[O-])cc2)c1)c1ccccc1
-12%	Cc1cc(=O)oc(C)c1C(=O)NCC(C)C
-6%	COC(=O)CC1c2ccccc2C(Cc2ccc(OC)cc2)C(C)N1C(=O)OC (configuration not stated)
-12%	Cc1cc(Oc2ccccc2)nc(N2CCOCC2)n1
-18%	O=C(COC(=O)c1ccccc1Cl)NC(=O)NCc1ccccc1
-22%	O=C(O)c1ccc2cccc(Cl)c2c1O
-12%	CCN(CC)C(=O)Oc1ccc(Cl)c2ccccc12
1%	CCN1C(=O)N(C)[C@@H](c2ccccc2)C(C(C)=O)=C1C
-10%	O=C(Nc1ccc(Br)cc1)c1cnccn1
?	O=S(=O)(c1ccc(Br)cc1)c1nc(-c2ccccc2)oc1NCc1cccnc1
-1%	COC(=O)C1(O)CC(CC(C)C)=NN1C(=O)c1ccccc1 (configuration not stated)
-8%	O=C(NCC1CCCO1)NC1(C(F)(F)F)Oc2ccccc2O1 (configuration not stated)
-12%	CN1C(=O)N(C)C2(c3ccccc3)Nn3c(s/c(=C/c4ccccc4F)c3=O)=NC12c1ccccc1 (configuration not stated)
-1%	O=C(COC(=O)c1cc(Br)ccc1Cl)NC(=O)NCc1ccccc1
-16%	O=C(c1ncn[nH]1)N1CCN(c2nc(-c3ccccc3)cs2)CC1
-4%	COc1cccc(CC(=O)N2CCc3nc(-c4ccccc4)c4c(c3C2)CO[C@@H](C)C4)c1
14µM*	Cc1ccc(CNC(=O)CN2CCCC(C)C2)cc1 (configuration not stated)
-7%	c1ccc(N=C(c2cccs2)N2CCOCC2)cc1
-19%	O=C(Nc1ccccc1)c1[nH]ncc1[N+](=O)[O-]

Part of the list above in a different format:
mol | HPGD block
CCOC(=O)C(C)Sc1cc(CS(=O)(=O)c2ccccc2)nc(-c2ccccc2)n1 (configuration not stated) | -11%
CO[C@H]1C=CO[C@]2(C)Oc3c(C)c(O)c4c(O)c(c5c(c4c3C2=O)NC2(CCN(CC(C)C)CC2)N=5)=NC(=O)C(C)=CC=C[C@@H](C)[C@@H](O)[C@@H](C)[C@@H](O)[C@@H](C)[C@@H](OC(C)=O)[C@@H]1C | -3%
Cc1ccc(C)c(-c2csc(N)c2C(=O)OC(C)C)c1 | -8%
N#CCCN(C(=O)COC(=O)c1cccc(S(=O)(=O)Nc2ccc([N+](=O)[O-])cc2)c1)c1ccccc1 | -14%
Cc1cc(=O)oc(C)c1C(=O)NCC(C)C | -12%
COC(=O)CC1c2ccccc2C(Cc2ccc(OC)cc2)C(C)N1C(=O)OC (configuration not stated) | -6%
Cc1cc(Oc2ccccc2)nc(N2CCOCC2)n1 | -12%
O=C(COC(=O)c1ccccc1Cl)NC(=O)NCc1ccccc1 | -18%
O=C(O)c1ccc2cccc(Cl)c2c1O | -22%
CCN(CC)C(=O)Oc1ccc(Cl)c2ccccc12 | -12%
CCN1C(=O)N(C)[C@@H](c2ccccc2)C(C(C)=O)=C1C | 1%
O=C(Nc1ccc(Br)cc1)c1cnccn1 | -10%
O=S(=O)(c1ccc(Br)cc1)c1nc(-c2ccccc2)oc1NCc1cccnc1 | ?
COC(=O)C1(O)CC(CC(C)C)=NN1C(=O)c1ccccc1 (configuration not stated) | -1%
O=C(NCC1CCCO1)NC1(C(F)(F)F)Oc2ccccc2O1 (configuration not stated) | -8%
CN1C(=O)N(C)C2(c3ccccc3)Nn3c(s/c(=C/c4ccccc4F)c3=O)=NC12c1ccccc1 (configuration not stated) | -12%
O=C(COC(=O)c1cc(Br)ccc1Cl)NC(=O)NCc1ccccc1 | -1%
O=C(c1ncn[nH]1)N1CCN(c2nc(-c3ccccc3)cs2)CC1 | -16%
COc1cccc(CC(=O)N2CCc3nc(-c4ccccc4)c4c(c3C2)CO[C@@H](C)C4)c1 | -4%

The listing continues:
HPGD block	Structure
-5%	Cc1ccc(NC(=O)c2cncc(Br)c2)cc1S(=O)(=O)N(C)C
-17%	C/C(=N\Nc1ccc(C(F)(F)F)cc1[N+](=O)[O-])C1CC1
-21%	Cc1ccc(C)n1Cc1ccc(C(=O)O)cc1
?	COc1ccc(-c2n[nH]c(=S)o2)c(OC)c1
-27%	Cn1c(=NC(=O)c2ccco2)sc2cccc(F)c21
-11%	Cc1cc(O)c(C(C[N+](=O)[O-])c2ccc(Cl)cc2)c(=O)o1 (configuration not stated)
-9%	CCCN(CCC)CCCNC(=O)CCNS(=O)(=O)c1ccc(Br)cc1
-13%	Cc1ccc(S(=O)(=O)NC(=O)O[C@@H]2C(=O)c3cc(Br)ccc3O[C@H]2c2ccc3c(c2)OCO3)cc1
-8%	O=C(COC(=O)Cc1ccsc1)NC(c1ccccc1)c1ccccc1
0%	COc1ccc(C(=O)NCC(=O)OCC(=O)N2CCCc3ccccc32)cc1
-3%	CCCCn1c(SCC(=O)Nc2nnc(C(C)C)s2)nc2c1c(=O)n(C)c(=O)n2C
10µM*	c1ccc(-c2nn3c(Cn4nnc5ccccc54)nnc3s2)cc1
-10%	COc1cccc(Nc2ncc3nc(-c4ccc(F)cc4)c(=O)n(C[C@H]4CCCO4)c3n2)c1
-4%	O=C(NC1CCCC1)c1ncn[nH]1
0%	CCOC(=O)c1cccc(NC(=O)COc2ccc([N+](=O)[O-])cc2)c1
-9%	Cc1cc(OC(=O)c2ccc(S(=O)(=O)N(C)C)cc2)cc(=O)o1
4%	Cn1nnnc1SCC(=O)Nc1cc(C(C)(C)C)nn1-c1ccccc1
-17%	O=C(Nc1nc2ccc(Cl)cc2s1)C1CCCO1 (configuration not stated)
-3%	CCCCN(C(=N)N1CCCCC1)c1nc(C)c([N+](=O)[O-])c(=O)[nH]1
-11%	N#Cc1c(NC(=O)CSc2ncnc3c2cnn3-c2ccccc2Cl)sc2c1CCCC2
-29%	O=C1c2ccccc2C(=O)N1CC1c2ccccc2CCN1C(=O)C1CCCCC1 (configuration not stated)
-11%	COc1ccc(/C=N/NC(=O)c2cccc([N+](=O)[O-])c2)cc1OS(=O)(=O)c1ccccc1
-16%	Cc1c(C#N)c2ccccc2n1CC(=O)N1CCCc2ccccc21
-26%	COc1ccc2c(=O)cc(-c3ccccc3)n(C)c2c1
-1%	CC1=Nc2ccccc2/C1=C/c1sc(=O)n(CC(=O)N2CCCC2)c1O
-1%	CC1Cc2cc(/C(O)=C3/C(=O)C(=O)N(CCN4CCOCC4)C3c3cccc(O)c3)ccc2O1 (configuration not stated)
?	Cc1ccc(NC(=O)c2cc(-c3ccco3)on2)cc1C
-2%	COc1ccc(/C(O)=C2\C(=O)C(=O)N(Cc3ccco3)C2c2cc(OC)ccc2OC)cc1 (configuration not stated)
-1%	O=C(Nc1cccc(Cl)c1Cl)c1ccncc1
-15%	O=C(NCCc1ccccc1F)C(=O)Nc1nccs1
-18%	CCCCCCCCC/C(=N\O)c1ccccn1
-21%	Cc1ccc2c(c1)N=C(c1ccc(F)cc1)CO2
-8%	COC(=O)C1=NN(c2ccccc2)C2(S1)S/C(=C\c1ccccc1)C(=O)N2c1ccccc1 (configuration not stated)
?	CC(Sc1ccc2ccccc2n1)C(=O)O (configuration not stated)
-5%	Cc1ccc(C(=O)COC(=O)CCN2C(=O)C3C4CC(C(Br)C4Br)C3C2=O)cc1 (configuration not stated)
-10%	O=C1CC(c2cccc([N+](=O)[O-])c2)c2ccc3ccccc3c2N1 (configuration not stated)
-1%	COc1ccc(S(=O)(=O)N2CCC(N3CCN(c4ccccc4)CC3)CC2)cc1
?	Cc1ccc(/C=C/C(=O)NCc2ccco2)o1
-13%	O=C(CN1C(=O)c2ccccc2C1=O)Nc1nnc(C2CCCO2)s1 (configuration not stated)
-18%	CCCn1nc([N+](=O)[O-])c(C(C#N)c2nc3ccccc3s2)c(Cl)c1=O (configuration not stated)
-20%	CCOc1ccc(NC(=O)N(CC(C)C)CC(C)C)cc1
-11%	O=C(c1ccc(Cl)cc1)c1cn[nH]c1-c1ccccc1O
-10%	O=c1c(Cc2ccccc2)c(O)nc2n1CCCS2
13µM*	CCOc1ccc(-c2nnc(SCc3nnc(-c4ccccc4)o3)n2-c2ccccc2F)cc1
-11%	COc1ccc(NC(C)=O)cc1NC(=O)CN1CCN(S(=O)(=O)c2ccc(C(C)C)cc2)CC1
-25%	CCC(C)C(=O)N1CCc2cc(-c3csc(N)n3)ccc21 (configuration not stated)
-10%	CCSc1ccccc1C(=O)Nc1cc(C)on1
-20%	COc1ccc(C(=O)N/N=C/C(Br)=C/c2ccccc2)cc1
-4%	COc1cc(NC(C)CCCN)c2ncccc2c1Oc1ccccc1 (configuration not stated)
?	Cc1ccc(-c2nc(NC(=O)CSc3nnc(C)s3)ns2)cc1
-8%	Cc1cc(Nc2cccc(Cl)c2C)n2ncnc2n1
2%	Cc1cccc(C)c1NC(=O)CS(=O)CC(=O)NC1CCN(Cc2ccccc2)CC1 (configuration not stated)
-16%	COc1ccc(-c2ccc(SCC(=O)NCc3ccco3)nn2)cc1
-5%	CCOC(=O)c1c(C2CC2)csc1NC(=O)COC(=O)c1cnc(Cl)c(Cl)c1
0%	O=C(CC12CC3CC(CC(C3)C1)C2)NCO
-4%	CCc1cccc(NC2c3ccccc3C(=O)N2c2ccc(C)cn2)c1 (configuration not stated)
-3%	COC(=O)c1ccccc1S(=O)(=O)N(CCCO)Cc1cc2c(C)ccc(C)c2[nH]c1=O
-10%	O=C(c1ccc(F)cc1)C1CCN(C(=O)N2CCOCC2)CC1
32µM*	O=C(NC(=S)Nc1ccc(N2CCCCC2)cc1)c1cccs1
-2%	Cc1nnc(NC(=O)c2ccc3c(c2)C(=O)N(CC2CCCO2)C3=O)s1 (configuration not stated)
-9%	O=C1CC(c2ccc(F)cc2)Cc2nc(NCC3CCCO3)ncc21 (configuration not stated)

Compound activity as filed in PubChem BioAssay.
